# High-throughput results as filed in PubChem BioAssay.
# gsp ag: activates gsp, the McCune-Albright syndrome mutation | gsp mutant cells, cAMP HTRF, 30 min; control for the full effect not named in the record | Potency, µM (doses to about 76.9 µM), inactives show top-dose activation (cAMP increase), most hits filed as activators | 0.13% of 340,000 active | AID 624287; active = well fitted activation curve with a large enough effect; inconclusive = small, poorly fitted or top-dose-only effect, or another doubt; inactive = no such curve, though single readings can be large or run the other way; cell line not stated here;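 note: phosphodiesterase inhibitor Ro 20-1724 added with compounds to block cAMP breakdown; potency is the fitted concentration of half-maximal effect; nearly all actives have a fitted effect of over 60% in size; about a fifth of the inactives were tested at one dose only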
#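 Cells in DMEM/10% FBS with G418 were pretreated with compounds in DMSO plus […] (300 uM stock) for 30 min at 37C. cAMP was measured by HTRF (cAMP-d2 plus anti-cAMP antibody-K) after 30 min at room temperature.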
# D2 ag: activates the human D2 dopamine receptor; 0.084% of 360,000 active; activation, % (test concentration not listed); P14416; DiscoveRx PathHunter D2 beta-arrestin, luminescence, 90 min; 100% = 57 uM dopamine signal; in the data active = activation above about 40%; inconclusive = about 15% to 40%; inactive = below about 15%; note: compound concentration not given in the record; the text of the record calls up to 30% inactive
# Target sequence (P14416 whole entry, looked up): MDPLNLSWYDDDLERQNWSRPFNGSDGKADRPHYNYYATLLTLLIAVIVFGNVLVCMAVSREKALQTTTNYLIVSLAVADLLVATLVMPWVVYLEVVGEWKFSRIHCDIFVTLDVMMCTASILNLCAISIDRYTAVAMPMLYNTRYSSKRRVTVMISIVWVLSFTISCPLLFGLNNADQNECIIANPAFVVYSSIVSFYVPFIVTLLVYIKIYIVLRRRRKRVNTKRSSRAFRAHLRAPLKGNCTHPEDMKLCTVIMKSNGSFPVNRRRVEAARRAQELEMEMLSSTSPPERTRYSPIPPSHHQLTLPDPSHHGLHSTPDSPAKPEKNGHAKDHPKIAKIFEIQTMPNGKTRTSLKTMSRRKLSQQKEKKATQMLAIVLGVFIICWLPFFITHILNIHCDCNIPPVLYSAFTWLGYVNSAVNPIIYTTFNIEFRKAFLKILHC
#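 Agonist mode: compounds alone added to overnight-plated D2 PathHunter cells for 90 min at 37 C, with 57 uM final dopamine (EC100) defining full response. Beta-arrestin recruitment detected by chemiluminescent reagent, read after 1 h at ambient temperature.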
# ClpP mod: qHTS Assay for Activators of ClpP | purified B. subtilis ClpP, FRET peptide cleavage, 20 min | Potency, µM (highest dose often 57.5 µM), for the others: at the top dose activity change, negative = active | 1.9% of 340,000 active; active = well fitted falling curve with a large enough effect; inconclusive = small, poorly fitted or top-dose-only effect; inactive = no such curve, though single readings can be large or run the other way; note: potency is the fitted concentration of half-maximal effect; the source files actives as falling curves though it sought activators and does not explain the sign; nearly all actives have a fitted effect of over 65% in size; many hits overshoot -100%
# Target sequence (P80244 whole entry, looked up): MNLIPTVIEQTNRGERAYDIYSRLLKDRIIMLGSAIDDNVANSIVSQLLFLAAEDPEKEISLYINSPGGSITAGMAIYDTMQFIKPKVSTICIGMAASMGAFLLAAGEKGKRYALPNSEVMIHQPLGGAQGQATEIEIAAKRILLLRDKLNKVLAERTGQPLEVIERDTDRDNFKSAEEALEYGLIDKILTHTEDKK
#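 FRET quenching reversal measured ClpP activation: 10 microg/mL B. subtilis ClpP at pH 8 with the FRET-FV decapeptide, read at 430 nm after 320 nm excitation. The 20-min minus 0-min signal was scaled between DMSO/no-enzyme wells and ADEP (5.8 microM final).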
# Menin-MLL FL inh: menin-MLL binding inhibition, fluorescein peptide. AID 1766. Fluorescence polarization, fluorescein-MLL peptide displacement from menin. 290,000 tested, under 10 active. FP activity change, % at 61.4 µM; inconclusive = falling polarisation curve, or a change in total fluorescence; inactive = total fluorescence flat and polarisation flat or rising; no compound was filed as active; the % refers to the polarisation; negative = inhibition;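 note: % of control where 0% means no effect; inhibitors lower the polarisation; unlabelled MLL peptide was the positive control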
# Sfp inh: Sfp phosphopantetheinyl transferase inhibition | Potency, µM, inactives show max response, negative = inhibition, most hits filed as inhibitors | Biochemical Sfp PPTase activity, qHTS | 3.5% of 310,000 active | Q9F4F7; active = well fitted inhibition curve with a large enough effect; inconclusive = small, poorly fitted or top-dose-only effect, or another doubt; inactive = no such curve, though single readings can be large or run the other way;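 note: the enzyme is Sfp with the accession as filed and its product quenches rhodamine fluorescence; potency is the fitted concentration of half-maximal effect; 0% = enzyme reaction without inhibitor and -100% = no enzyme wells; top concentration of the series not given in the record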
#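 After 15 min at room temperature with compound, 15 nM Sfp received 5 uM rhodamine-CoA plus 12.5 uM BHQ-2-ybbR (50 mM Hepes pH 7.6, 10 mM MgCl2). Rate came from the fluorescence difference over 30 min, ex 525/em 598 nm.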
# PINK1 expr mod: PINK1 expression modulation | PINK1 immunofluorescence, high-content cytometry, 24 h | 0.2% of 410,000 active | Potency, µM (top dose mostly 76.6 µM), inactives show at the highest dose activation (PINK1 increase), hits mostly activators; active = well fitted activation curve with a large enough effect; inconclusive = small, poorly fitted or top-dose-only effect; inactive = flat fitted curve, though single readings scatter; cell line not stated here;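 note: potency is the fitted concentration of half-maximal effect; % of control where 0% means no effect; nearly all actives have a fitted effect of over 65% in size; a mitochondrial uncoupler was the plate control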
#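 Stable cell line, 250 cells/well, 12 h attachment; compounds pinned at 5 concentrations, 24 h; CCCP control. Fixed with nuclear dye, primary antibodies 12 h at 10 degrees C, secondary plus cell stain; laser-scanning cytometer read.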
# gsp antagonist: antagonizes gsp, the McCune-Albright syndrome mutation; gsp-mutant cells, cAMP HTRF, 30 min; control for the full effect not named in the record; AID 624288; Potency, µM (doses to about 76.9 µM), for inactives: at the top dose activity change, negative = inhibition, most hits filed as inhibitors; 0.4% of 340,000 active; active = falling curve of any shape with a large fitted effect; inconclusive = falling curve, mostly with a smaller effect; inactive = flat or rising curve; cell line not stated here;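 note: intracellular cAMP measured with PDE inhibitor Ro 20-1724 present during compound exposure; potency is the fitted concentration of half-maximal effect; % is set by controls: 0 for no effect and ±100 for the full control effect; nearly all actives have a fitted effect of over 65% in size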
#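 G418-selected cells were plated in DMEM/10% FBS for 16-24 h at 37C, then treated with compounds plus the PDE inhibitor […] (300 uM solution added) for 30 min at 37C. Intracellular cAMP was measured by HTRF after 30 min lysis at room temperature.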
# Numbers without * were called inactive; ? = inconclusive; nt = no result given; & = joins results of further samples; [ ] = dose if it differs, or a comment.
SMILES,gsp ag,D2 ag,ClpP mod,Menin-MLL FL inh,Sfp inh,PINK1 expr mod,gsp antagonist
CC(C)(C)NS(=O)(=O)c1ccc(NC(=O)Cc2ccccc2[N+](=O)[O-])cc1,8%[15.4 µM],-6.7,-2.6%,1.3,-2%,1.1%,-2%
Cc1ccc(S(=O)(=O)N/N=C\c2cc3c(cc2Br)OCO3)cc1,-25%,-1.7,-0.4%,1.1,9%,3.5%,-3%
Cc1sc2ncnc(N3CCC(C(=O)NNC(=O)COc4ccccc4Cl)CC3)c2c1C,-4%,5.4,0.8%,nt,nt,-3.4%,?
COc1ccc(C(=O)COC(=O)c2cccs2)cc1,2%,1.1,2.2%,nt,nt,2.3%,-1%
CNS(=O)(=O)c1cccc(C(=O)OCC(=O)Nc2ccc(Cl)cc2F)c1,15%[15.4 µM],2.9,nt,-1.9,12%,2.1%,10%
CCOc1ccccc1CN1CCCC(CNS(=O)(=O)c2ccc(OC)cc2)C1 (centres undefined),30%,-3.7,-1.4%,nt,-3%,0.7%,-1%
Cc1csc(NC(=O)c2cc(=O)[nH]c3ccccc23)n1,-36%[inhibitor],2.1,-25%,2.8,1%,-0.2%,2%
COc1ccc(C2/C(=C(/O)c3ccc(Br)cc3)C(=O)C(=O)N2C)cc1 (centres undefined),-16%,0.0,-0.3%,0.4,8%,-0.1%,-5%
Cc1cn2c(=O)c(C(=O)N3CCN(c4ccccc4Cl)CC3)cnc2s1,1%,-1.5,-8.7%,nt,nt,2.1%,-3%
Cc1ccc(SC(=O)c2c([N+](=O)[O-])c(C)nn2C)cc1,26%[15.4 µM],2.3,nt,4.8,?,4.3%,-1%
CC1Cc2nc(SCC(=O)N3CCCc4ccccc43)n(C)c(=O)c2S1 (centres undefined),5%,-2.5,-0.7%,0.3,14%,-0.6%,-25%
COCCCNC(NC(=O)c1ccc(Br)cc1)C(Cl)(Cl)Cl (centres undefined),-33%[inhibitor],-1.1,-3.6%,1.2,23%,-1.2%,-2%
CC(C)(C)NC(=O)c1ccc(NC(=O)CSc2ccccc2)cc1,2%,0.8,nt,-1.2,14%,-1.0%,-11%
Cc1noc(NS(=O)(=O)c2ccc(N/C=C/C(=O)c3ccncc3)cc2)c1C,?,1.2,-1.8%,7.2,2%,-1.1%[38.3 µM],16%
COc1ccccc1CNCc1cc(OC)c(OC)c(OC)c1,0%,-2.4,nt,-0.8,-10%,-0.4%,3%
CCOC(=O)c1ccc(OC(=O)CCCCCN=C(N)N)cc1,nt,-3.7,-0.2%,?,6%&28%,2.0%,3%
COc1cc(CC(=O)OCC(=O)Nc2ccc(S(=O)(=O)N3CCCC3)cc2)cc(OC)c1OC,13%,-1.0,-3.1%,2.4,10%,-0.3%,2%
O=C(Nc1ccc(C(F)(F)F)cc1-c1ccccc1)c1ccccc1,-4%,0.1,-14%,0.8,8%,16%,7%
CCCCCCCCCCOC(=O)Cn1c(COc2ccccc2C)[n+](C)c2ccccc21,12%,-13,nt,3.6,45µM*,-0.3%,-3%
CN(C)CCCNC(=O)/C(=C\C=C\c1ccccc1)NC(=O)c1ccc([N+](=O)[O-])cc1,26%,-2.2,nt,1.2,7%,8.8%,-5%

# A second format for 2 compounds above.
# Results follow in this order: gsp ag	D2 ag	ClpP mod	Menin-MLL FL inh	Sfp inh	PINK1 expr mod	gsp antagonist
- Cc1cn2c(=O)c(C(=O)N3CCN(c4ccccc4Cl)CC3)cnc2s1
→ 1%	-1.5	-8.7%	nt	nt	2.1%	-3%
- COc1cc(CC(=O)OCC(=O)Nc2ccc(S(=O)(=O)N3CCCC3)cc2)cc(OC)c1OC
→ 13%	-1.0	-3.1%	2.4	10%	-0.3%	2%

# Continued:
SMILES,gsp ag,D2 ag,ClpP mod,Menin-MLL FL inh,Sfp inh,PINK1 expr mod,gsp antagonist
Cc1ccc(N2CCC(N3CCN(C)C(CCO)C3)CC2)cc1 (centres undefined),2%,-11,nt,0.3,2%,1.3%,-4%
CC(C)Cc1nnc(NC(=O)CCC(=O)NCCc2ccccc2)s1,-18%,-0.9,-1.6%,4.6,10%,0.1%,11%
O=C(c1ccc(Cn2cnnn2)cc1)N1CCCC(Nc2ccc(F)c(F)c2)C1 (centres undefined),18%,-0.1,0.4%,nt,10%,-0.4%,-15%
CS(=O)(=O)c1ccc(Cl)c(NC(=O)COC(=O)CNC(=O)c2ccc3ccccc3c2)c1,-21%,2.2,-15%,nt,nt,6.4%,-12%
N#Cc1cccc(-n2c(-c3ccccc3)nnc2-c2ccccc2)c1C#N,12%,2.1,-4.7%,-0.5,15%,-3.7%[38.3 µM],-23%
COc1ccc(CNC(=O)CN2C(=O)NC3(CCCc4sccc43)C2=O)cc1 (centres undefined),?,2.9,-0.9%,nt,nt,0.4%,7%
CN(C)CCNC(=O)CN1C(=O)CSc2ccc(S(=O)(=O)N3CCCCC3)cc21,19%,-0.2,0.5%,0.1,26%,-1.1%,1%
c1ccc(Cn2c(NCc3ccco3)nc3ccccc32)cc1,-24%,0.9,-2.1%,1.4,-10%,-4.1%[38.3 µM],-11%
COc1ccc(C(=O)Cn2nnc(-c3ccccc3F)n2)cc1,-1%,-2.5,-1.2%,1.1,0%,2.1%[38.3 µM],-11%
CCOc1cc(N2CCOCC2)c(OCC)cc1NC(=O)CN1C(=O)NC(CC(C)C)C1=O (centres undefined),15%,1.0,1.5%,-3.5,4%,7.4%,-12%
Cc1cnc(NC(=O)CSc2nnc(CNc3ccc(F)cc3)n2CC2CCCO2)s1 (centres undefined),-18%,-0.8,-0.6%,-1.7,-1%,1.2%,9%
COc1cccc(Cn2c(=O)c(-c3ccc(F)c(F)c3)nc3cncnc32)c1,nt,nt,nt,4.1,-6%,2.1%,nt
COc1cccc2[nH]c3c(N4CCC5(CC4)OCCO5)ncnc3c12,-4%,0.8,4.0%,8.2,3%,3.3%,-8%
O=C(O)/C=C/C(=O)Nc1ccc(C2(c3ccc(NC(=O)/C=C/C(=O)O)cc3)c3ccccc3-c3ccccc32)cc1,-19%,-0.8,1.0%,1.3,-9%,0.8%,1%
Cc1csc(NC(=O)C2=NN(c3ccccc3)C(=O)CC2)n1,3%[15.4 µM],1.9,nt,0.3,1%,0.1%,0%
Cc1ccc(C)c(OCCCN2CCCC2)c1,14%,-0.6,0.6%,-1.6,-7%,-2.9%[38.3 µM],5%
O=C(NC(=S)NCC1CCCO1)c1cccc([N+](=O)[O-])c1 (centres undefined),-1%,-1.8,-4.4%,2.4,8%,3.6%,-16%
CN(CC(=O)Nc1ccc(N2CCOCC2)cc1)C(=O)c1cc(S(=O)(=O)N(C)C)ccc1Cl,-33%[inhibitor],-1.7,-2.7%,nt,11%,2.6%,8%
COc1ccc(NC(=O)C2CC(=O)N(C)C(=Nc3ccc4c(c3)OCO4)S2)cc1 (centres undefined),-3%,-1.7,-1.0%,-0.3,-14%,7.6%[38.3 µM],-13%
COc1ccccc1NC(=O)CSc1nc2sc(C)c(C)c2c(=O)n1Cc1ccco1,18%,-0.7,-6.3%,4.4,20µM*,9.6%,2%
C[N+](C)(CC#Cc1ccccc1)CC(=O)c1ccccc1,3%,-1.0,-2.4%,1.1,10%,0.5%,5%
COc1ccccc1N1CCN(C(=O)CCC(=O)N2CCN(c3ccccc3OC)CC2)CC1,-20%,2.4,0.1%,1.8,7%,0.8%,-6%
Cc1ccc(N(C(=O)c2ccc(Br)o2)C2C=CS(=O)(=O)C2)cc1 (centres undefined),-22%,-5.2,1.4%,1.0,-3%,2.8%,-7%
CC(C)NC(=O)C1(C)CCCCN1Cc1ccc(OCc2ccccc2)cc1 (centres undefined),nt,-1.8,-0.6%,nt,nt,6.1%,nt
C#CCN(C[C@@H]1[C@@H](OC(=O)NC2CC2)[C@@H](OC(=O)NC2CC2)CN(C(=O)OC(C)C)N1C(=O)OC(C)C)S(=O)(=O)c1ccc(C)cc1,-29%,-7.5,-1.2%,nt,nt,4.9%,nt
COc1ccc(CN2CCN(S(=O)(=O)c3ccc(C)cc3)CC2)cc1OC,0%[15.4 µM],-4.1,-2.2%,nt,nt,0.6%,-23%
O=C(NC1CCCCC1)NS(=O)(=O)c1ccc2c(c1)CCC2,2%,-0.9,0.5%,nt,nt,-5.4%,10%
CC1CCN(CCNC(=O)CN(C)S(=O)(=O)c2cccc3nsnc23)CC1,-34%[inhibitor],-4.0,-1.4%,3.1,11%,-3.7%,4%
Cc1ccsc1C(=O)NNC(=O)CCN1CCN(c2ccccc2)CC1,?,13,-6.0%,nt,nt,1.6%,10%
Cc1c(Cl)cccc1NC(=O)c1cccnc1,1%,-2.0,-3.0%,1.0,7%,0.4%,4%
CC1CCCN(c2nc3nonc3nc2Nc2ccccc2F)C1 (centres undefined),-6%,1.8,2.6%,-0.9,0%,1.5%,-18%
CC1CCC(NC(=O)c2ccc(NC(=O)CC3SC(N4CCCC4)=NC3=O)cc2)CC1 (centres undefined),0%,-1.8,-14%,nt,nt,?,-7%
COc1cc(C2c3[nH]c4ccccc4c3C[C@@H]3C(=O)N(Cc4ccco4)CC(=O)N23)cc(OC)c1OC (some centres undefined),0%[15.4 µM],0.4,-1.1%,-0.2,10%,12%,0%
Clc1cccc(Cl)c1/C=C/c1ccn[nH]1,3%,3.2,-4.1%,2.5,0%,-1.6%,11%
Cc1ccc(/C=N/NC(=O)CSc2nnc(-c3ccc(Cl)cc3)n2-c2ccccc2)o1,-3%,?,?,11,-3%,2.4%,-18%
CCOC(=O)Oc1ccc2c(c1)C(C)=CC(C)(C)N2C(=O)OCC,-19%,4.9,-2.5%,2.2,-9%,3.6%,-4%
O=S(=O)(NC1c2cccc3cccc(c23)C1N1CCNCC1)c1ccccc1 (centres undefined),2%,-0.6,-5.7%,3.4,7%,-1.4%,11%
COC(=O)c1cc(OC)nc2ccc(Br)cc12,?,-3.9,1.3%,-1.6,3%,0.9%,8%
CCNC(=O)C1(C)CCN(Cc2cccc(Oc3ccccc3)c2)C1 (centres undefined),nt,-1.7,-0.9%,nt,nt,-0.6%,nt
CCOC(=O)C(=CNc1ccccc1Cl)C(=O)OCC,-19%,-2.1,-1.2%,5.7,9%,0.0%,-20%
